HCMV NEC inh – disrupts HCMV UL50-UL53 complex binding. HTRF UL50-UL53 interaction, normalized percent inhibition. inhibition, % (concentration not given with the values). actives 0.15% (n = 190,000);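 active = both replicates at 50% or more, plus weaker picks with an unusually low signal ratio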;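 note: stock transfer was 100 nL into about 20 µL; 0% = negative control wells and 100% = wells with untagged competitor protein; inactives centre near -12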
Sa growth inh – blocks Staphylococcus aureus growth; S. aureus RN4220 growth, OD600, 20 h, 42 °C; active compounds read low; AID 720641; actives 0.53% (n = 170,000); relative growth, % (concentration not given with the values);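 active = growth at 42 °C up to 50% and 20 or more points under that at 30 °C, or under 10% at both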;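 note: 300 nL library stock went into each well; scaled to the means of positive and negative controls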
GIV Gai3 FP – GIV-Galpha-i interaction inhibition; Galpha-i3/FITC-GIV peptide fluorescence polarization, 90 min; active compounds read low; scaled: aluminum fluoride 0%, vehicle 100%; AID 1224905; percent of control (FP), % (no concentration beside the values); actives 0.42% (n = 210,000);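 active = replicate mean at 85% of control or lower, very high polarization wells dropped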;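 note: wells of about 15 µL received 100 nL stock; the first replicate is given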
Target sequence (P08753 whole entry, looked up): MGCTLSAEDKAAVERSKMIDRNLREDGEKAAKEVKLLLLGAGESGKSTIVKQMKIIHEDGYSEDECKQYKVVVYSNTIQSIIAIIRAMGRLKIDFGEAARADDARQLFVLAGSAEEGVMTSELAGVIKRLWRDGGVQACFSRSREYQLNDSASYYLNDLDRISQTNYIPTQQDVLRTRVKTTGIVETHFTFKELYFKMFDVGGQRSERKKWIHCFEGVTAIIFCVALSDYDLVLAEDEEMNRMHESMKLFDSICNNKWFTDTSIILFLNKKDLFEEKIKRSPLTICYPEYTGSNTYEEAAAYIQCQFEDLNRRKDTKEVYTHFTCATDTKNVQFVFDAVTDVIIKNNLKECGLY
Sa growth inh second temp – second read-out of Sa growth inh, no call of its own (marks repeat the call); relative growth, %; measured here: growth at 30 °C;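 optical density after 20 h as mean of two plates; 100% = untreated growth and lower means inhibition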
An asterisk follows results filed as active; . = no result given; & = joins results of further samples.

Values run as follows: HCMV NEC inh, Sa growth inh, Sa growth inh second temp, GIV Gai3 FP
- COC(=O)c1ccc2c(c1)N(C)S(=O)(=O)/C(=C\Nc1ccc(Cl)cc1)C2=O
    9, 94, 92, 106
- Cc1ccc(S(=O)(=O)N=C2SCCCS2)cc1
    -28, 117, 95, 102
- NC(=O)Cc1cc2ccccc2n1Cc1ccccc1
    -1, 102, 104, .
- O=C(c1ccc(CSc2ncn[nH]2)cc1)N1CCc2ccccc21
    -2, 102, 80, .
- COc1ccc(C2=NN(CC(=O)NCCN3C(C)CCCC3C)C(=O)CC2)cc1 (stereo not given)
    -28, 106, 90, 104
- O=C(O)c1cc2cc(Br)cc(Br)c2oc1=O
    -64, ., ., 101
- CCC(=O)NC(Nc1ccc(S(=O)(=O)Nc2ccc(OC)nn2)cc1)(C(F)(F)F)C(F)(F)F
    -8, 94, 107, 97
- N#C/C(=C\N1CCC(n2cccc2)CC1)S(=O)(=O)c1ccccn1
    -10, 103, 88, 104
- CC1CCCC(NC(=O)c2ccc3c(c2)N(Cc2ccccc2)C(=O)CS3=O)C1C (stereo not given)
    -3, 80, 100, 99
- COc1ccc(NC(=O)C2CCN(c3ncnc4c3sc3nc(C)cc(-c5ccccc5)c34)CC2)cc1OC
    -13, ., ., 100
- CCOc1ccc(-n2cc(-c3ccccc3)c3c(SCC)ncnc32)cc1
    ., 103, 85, 101
- CNS(=O)(=O)c1ccc(-c2cc(C(F)(F)F)on2)o1
    -13, ., ., 106
- Cc1ccc(N(CC(=O)N2CCN(c3cccc(Cl)c3)CC2)S(=O)(=O)c2c(C)noc2C)cc1
    -24, 102, 83, 101
- Clc1ccc2c(c1)CN(Cc1ccccc1)CO2
    -40, 86, 79, 106
- Cc1ccc(N(Cc2ccc(C(=O)N3CCOCC3)cc2)S(C)(=O)=O)cc1C
    -8, 112, 93, .
- CCOc1ccc(CNS(=O)(=O)c2ccc(-c3cc(C(F)(F)F)on3)s2)cc1
    ., 99, 91, 100
- CCOc1ccc(OCC(=O)Nc2c(C(=O)Nc3ccc(C)cc3)oc3ccccc23)cc1
    -21, 95, 88, 100
- CCC(C)(C)C(=O)Nc1nnc(COC)s1
    -1, 121, 85, 105
- COc1ccc(Cl)cc1C(=O)Nc1nnc2n1CCS2
    ., 89, 81, 101
- COCCNC(=O)CN1C(=O)CCn2nc(-c3cn(C)c4ccccc34)cc21
    -25, 102, 94, 104&103
- CN1CC(=O)NC(=O)C1
    -16, 79, 75, .
- CCOC(=O)c1c(C)[nH]c(C)c1S(=O)(=O)N(CCc1ccncc1)CC1CCCO1 (stereo not given)
    -19, ., ., 104
- O=C(CN1C(=O)C2C3C=CC(C3)C2C1=O)N1CCN(c2ccccc2)CC1 (stereo not given)
    0, 109, 103, 104
- O=C(Nc1cccc(Cl)c1)C1CC2CSCN2C12C(=O)Nc1ccccc12 (stereo not given)
    -31, ., ., 105
- O=C(Nc1ccc(C(=O)OCc2cc(=O)n3c4c(sc3n2)CCCC4)cc1)c1ccc(Cl)cc1
    ., 87, 86, 100
- O=C(NCc1ccc(F)cc1)NCC(c1ccc(F)cc1)c1c[nH]c2ccccc12 (stereo not given)
    -20, ., ., 100
- CC(C)(C)c1nc(N)nc(NNS(=O)(=O)c2ccccc2C(F)(F)F)n1
    -24, 78, 71, 103
- CCN1C(=O)c2cc(C(=O)NC3CCCC3)nn2CC1(C)C(=O)NC1CCCC1 (stereo not given)
    -6, ., ., 105
- N#Cc1ccccc1NC(=O)C(=O)NCCc1csc(-c2ccc(F)cc2)n1
    ., 84, 89, 103
- CCC(C)C1=NN(C(=O)c2ccccc2)C(O)(C(=O)OC)C1 (stereo not given)
    1, 107, 80, .

Ordered by count of non-hydrogen atoms (smallest number first): part of the list above
Values run as follows: HCMV NEC inh, Sa growth inh, Sa growth inh second temp, GIV Gai3 FP
- CN1CC(=O)NC(=O)C1
    -16, 79, 75, .
- O=C(Nc1cccc(Cl)c1)C1CC2CSCN2C12C(=O)Nc1ccccc12 (stereo not given)
    -31, ., ., 105
- CCOC(=O)c1c(C)[nH]c(C)c1S(=O)(=O)N(CCc1ccncc1)CC1CCCO1 (stereo not given)
    -19, ., ., 104

Later entries.
Values run as follows: HCMV NEC inh, Sa growth inh, Sa growth inh second temp, GIV Gai3 FP
- Cc1sc2ncnc(SCC(=O)NC34CC5CC(CC(C5)C3)C4)c2c1C
    -14, ., ., 105
- NC(=O)C(Cc1ccccc1)NC(=O)c1ccc(Cl)cc1Cl (stereo not given)
    -2, 117, 81, .
- COc1cccc(-c2nnc(SCC3CNC(=O)O3)n2-c2ccc(Cl)cc2)c1 (stereo not given)
    -17, 100, 91, .
- COc1ccc(C(=O)c2coc3ccc(O)c(CN4CCCCC4)c23)cc1
    -21, 94, 89, 99
- Cc1ccc(Cn2c3ccccc3c3cnn(CC(=O)NCc4ccccc4)c(=O)c32)cc1
    -25, ., ., 103
- O=c1[nH]c2c(cnn2-c2ccccc2)c(=O)n1-c1ccc(Cl)c(Cl)c1
    -23, 90, 59, 98
- O=C(/C=C/c1ccccc1)Oc1ccc(-c2cnc3ccccc3n2)cc1
    -7, 96, 88, .
- CCOc1ccc(NC(=O)N2CCN(c3ccc(Cl)c(Cl)c3)CC2)cc1
    14, 107, 99, 111
- C1CCC(Nc2nnc(SCC3CCCCO3)s2)CC1 (stereo not given)
    -7, 80, 93, .
- CCc1ccc(NC(=O)CCCn2c(=O)c3cccn3c3ccccc32)cc1
    ., 104, 86, 105
- O=C(Nc1nonc1-c1ccc(Br)cc1)c1ccco1
    -22, 97, 63, 105
- CCc1ccc(-c2ccc(=O)[nH]n2)cc1S(=O)(=O)Nc1cc(C)cc(C)c1
    -48, ., ., 102
- CC1(C)CC(=O)C=C(OC(=O)c2ccc(C(C)(C)C)cc2)C1
    0, 97, 91, 104
- O=C(NC1CCCCC1)C1CCN(c2ccc(-c3ccccc3)nn2)CC1
    -36, ., ., 98
- COc1cccc(CNC(=O)CCC2=NS(=O)(=O)c3ccccc3N2)c1
    -9, ., ., 107
- N=c1ccn2c(n1)O[C@H]1[C@H](O)[C@@H](CO)O[C@H]12
    -29, 95, 77, 107
- O=C1CCC(=O)N1OCCCOc1ccccc1
    -2, 100, 101, 110
- COc1c(Cl)cc(Cl)cc1C(=O)Nc1cccc(-c2nc3ccccc3o2)c1C
    4, 100, 102, 113
- COc1cccc(C2=NOC(C(=O)Nc3cccnc3)C2)c1 (stereo not given)
    -36, 83, 86, 105
- COc1ccc2c(c1)c(NC(C)=O)c1n2CC(C)(C(=O)NC2CCCC2)N(CCC(C)C)C1=O (stereo not given)
    34, ., ., 94
- COc1ccccc1/C=C(\C#N)c1nc(-c2cc3ccccc3oc2=O)cs1
    -23, 102, 90, 107
- CC1CCC(NC(=O)CCN2C(=O)C3CC=CCC3C2=O)CC1 (stereo not given)
    -29, 63, 96, .
- Cc1ccccc1-n1ccnc1SCC(=O)O
    -10, 94, 97, .
- CCOC(=O)c1c(N)sc2c1CN(C(=O)OC)N(C(=O)OC)C2
    12, 109, 102, 106
- COc1cc(C2C(C(=O)OC(C)C)=C(C)NC3=C2C(=O)CC(c2ccccc2)C3)c([N+](=O)[O-])cc1OC (stereo not given)
    -28, ., ., 107
- COc1ccc(CCNC(=O)C(C(C)C)N2C(=O)c3ccccc3C2=O)cc1 (stereo not given)
    ., 110, 95, 99
- O=C(CNC(=O)C12CC3CC(CC(C3)C1)C2)N1CCN(c2ccccc2Cl)CC1
    -10, 95, 93, .
- COc1ccc(/C=C(\C#N)C(=O)C(C)(C)C)cc1
    -4, 117, 99, .
- N#Cc1cc(F)cc(F)c1NC(=O)c1cccs1
    ., 104, 81, 95
- CCCc1nc2c(o1)N(C(=O)OCC)C(N)=C(C#N)C21CCNCC1
    -5, 109, 69, .
- Cc1ccc(N=C2N=C(N)c3ccccc32)cc1Cl
    -19, 117, 81, .
- CC(c1ccccc1)n1c(SCC(=O)N(C)C)nc2ccccc2c1=O (stereo not given)
    -6, 86, 92, .
- CN1CCN(C(=O)CC(c2ccccc2)c2ccccc2)CC1
    -2, 97, 118, 103
- OCCSc1c(F)c(F)c(SCCO)c(F)c1F
    -12, 91, 90, 100
- Cc1cc(NC(=O)c2cc(-c3ccccn3)nc3ccccc23)n[nH]1
    -20, 101, 86, .
- Cc1cccn2c(=O)cc(CN(Cc3ccc(C(C)C)cc3)CC(C)C)nc12
    -11, ., ., 122
- Cc1ccccc1NS(=O)(=O)c1ccc2[nH]cc(C(=O)NCc3ccccc3)c(=O)c2c1
    4, 86, 84, 101
- CC(C)CCOc1ccc2c3c(c(=O)oc2c1)CCC3
    -10, 87, 69, 99
- O=C(O)C(Cc1ccccc1)NCc1c(O)ccc2c3c(c(=O)oc12)CCCC3 (stereo not given)
    -2, 84, 101, .
- C=CCC(O)(CCN1CCCCC1)c1ccccc1 (stereo not given)
    -2, 67, 84, 110

The closing 4 records of the section above lead into the next:
Values run as follows: HCMV NEC inh, Sa growth inh, Sa growth inh second temp, GIV Gai3 FP
- Cc1ccccc1NS(=O)(=O)c1ccc2[nH]cc(C(=O)NCc3ccccc3)c(=O)c2c1
    4, 86, 84, 101
- CC(C)CCOc1ccc2c3c(c(=O)oc2c1)CCC3
    -10, 87, 69, 99
- O=C(O)C(Cc1ccccc1)NCc1c(O)ccc2c3c(c(=O)oc12)CCCC3 (stereo not given)
    -2, 84, 101, .
- C=CCC(O)(CCN1CCCCC1)c1ccccc1 (stereo not given)
    -2, 67, 84, 110
- Cc1ccc(OCc2nnc(-c3ccccc3)o2)cc1
    -1, 90, 83, 101
- CCOC(=O)c1nn(-c2ccccc2)c(C#N)c1NC(=O)c1nn(CC)cc1Br
    ., 96, 83, 101
- O=C(O)c1ccc(COc2ccc(Cl)cc2)o1
    -21, 108, 108, 101
- c1ccc(-c2ccnc3nc(-n4cccc4)nn23)nc1
    -27, ., ., 102
- CCC(=O)n1nc(NCc2ccc(F)cc2)nc1NCc1ccc(F)cc1
    -22, 106, 75, 106
- O=C(c1ccccc1)c1ccco1
    -20, 73, 87, .
- Cc1cc(C)nc(N/C(=N\S(=O)(=O)Cc2ccccc2)Nc2ccccc2Br)n1
    ., 97, 87, 99
- Cc1ccc(-c2ccc(N3CCC(C(=O)NC4CC4)CC3)nn2)cc1
    -3, ., ., 105
- C=CCNc1sc(C(=O)c2cccs2)c(N)c1C#N
    5, 112, 102, 100
- Cc1ccc(OCC(=O)Nc2ccc(OCc3cc(=O)n4ccsc4n3)cc2)cc1
    -12, 114, 78, 106
- COc1ccc(-n2nc(C(=O)N3CCN(c4ccccc4OC)CC3)c(=O)n(C)c2=O)cc1
    -20, ., ., 99
- CN1C(=O)N(CCOc2ccc(Cl)cc2)C(=O)C1(C)C
    3, 100, 93, .
- O=C(c1ccncc1)N1N=C(c2cccc([N+](=O)[O-])c2)CC1(O)C(F)(F)F (stereo not given)
    -39, ., ., 109
- N#Cc1ccc(OC(=O)c2ccc(Cl)cc2)cc1
    -22, 91, 87, 101
- COc1ccc(C(=O)O)cc1S(=O)(=O)N1CC(c2ccccc2)CC1=O (stereo not given)
    4, 85, 94, 100
- CCOC(=O)N1CCC(n2c(SCC(=O)Nc3ccc(OC)cc3OC)nc3ccsc3c2=O)CC1
    -1, 99, 79, 98
- CCOC(=O)C1=Cc2sc3c(c2CS1)CCCC3
    ., 71, 23, 101
- CCN(CC)S(=O)(=O)c1ccc2c(c1)c(=O)c(C(=O)NCc1cccs1)cn2C
    -16, 108, 59, 103
- COc1cc(OC)c(NC(=O)Cn2c(=O)cc(C(F)(F)F)c3c(C)nn(C)c32)cc1Cl
    ., 107, 90, 106
- CCCCNC(=O)CSc1nc2cc(-c3ccccc3)[nH]c2c(=O)n1Cc1ccccc1
    -6, ., ., 113
- N#C/C(=C(/O)COc1ncnc2ccccc12)c1nc2ccccc2[nH]1
    -12, 109, 94, .
- CCOC(=O)N1CCN(C(=O)CN(c2ccccc2)S(=O)(=O)c2ccc(F)cc2)CC1
    10, 93, 98, 102
- Cc1ccc2cc3c(nc2c1)N(S(=O)(=O)c1ccc(F)cc1C)CC3
    20, ., ., 102
- O=C(Nc1ccccc1)Nc1ccc(-c2nnc3n2CCCCC3)cc1
    4, 113, 95, .
- CC(C)(C#N)N1CCN(c2ccccc2)CC1
    -11, ., ., 100
- CCOc1ccc(NC(C)C(=O)NCc2ccc3c(c2)OCO3)cc1 (stereo not given)
    0, 100, 85, .
- CCc1nn2cc(-c3cccc(OC)c3)nc2s1
    -23, ., ., 103
- CC(C)(C)NS(=O)(=O)c1ccc(NC(=O)CN2C(=O)c3ccccc3C2=O)cc1
    -39, 98, 81, 99
- CCN(C(=O)CSc1nc(-c2ccc(C(C)C)cc2)no1)c1cccc(C)c1
    ., 58, 56, 106
- O=C(NCCc1ccccc1)c1ccc(CSc2nc3ccncc3n2Cc2cccc(F)c2)cc1
    5, 73, 91, 106
- C=Cc1ccc(Cn2c(=O)cc(C)c3c(C)nn(-c4ccccc4)c32)cc1
    ., 79, 90, 103
- COc1ccc(OC(=O)C2CC(=O)N(c3ccc(C)cc3)C2)cc1 (stereo not given)
    -35, 106, 83, 101
- Cc1c(C(=O)CC#N)sc2ccc(Cl)cc12
    13, 112, 97, 101
- COC(=O)c1c(C)[nH]c(C(=O)N2CCCC(C(=O)N3CCOCC3)C2)c1C (stereo not given)
    12, ., ., 101
- Cc1ccc(S(=O)(=O)CC2CSc3nnc(C)c(=O)n32)cc1 (stereo not given)
    ., 118, 99, 102
- Cc1cccc(Cn2cc(C(=O)c3ccc(C)c(C)c3)c(=O)c3cc4c(cc32)OCO4)c1
    ., 70, 66, 100
- COc1ccc(OC2CCN(S(=O)(=O)c3cccc(F)c3)CC2)cc1
    12, 80, 94, 94
- c1ccc2c(N3CCOCC3)c3c(nc2c1)CCC3
    -14, 98, 92, .

Assay outcomes (PubChem)
